# Bioassay records deposited in PubChem by Sanford-Burnham Center for Chemical Genomics.
# MT1-MMP promoter: MT1-MMP gene expression reporter suppression – cell-based, luciferase reporter, luminescence (AID 618). MT1-MMP promoter luciferase reporter cells, luminescence. calls from a first round at 10 µM; hits with a dose series show EC50 in µM. 87,000 compounds, 0.62% hits;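 active means over half of the reporter light lost at 10 µM or EC50 under 50 µM; inactive means the rest and hits that failed the dose series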;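 further: actives suppress MT1-MMP promoter-driven transcription so potencies describe inhibitors; HT1080 fibrosarcoma cells; overnight exposure; toxic or luciferase-blocking compounds were not removed from the actives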
# Calls only; i = inactive. The list is partial; the hit share may differ from the screen's.
SMILES,MT1-MMP promoter
Cc1ccccc1N/C(=C(/C(Cl)=C(Cl)Cl)[N+](=O)[O-])n1nnc2ccccc21,i
O=C(NCc1ccccc1)c1ccc(CS(=O)(=O)c2ccccc2)o1,i
COC(=O)[C@@]1(Cc2ccc(OC)cc2)[C@H]2c3cc(C(=O)N4CCCC4)n(Cc4ccc(S(C)(=O)=O)cc4)c3C[C@H]2CN1C(=O)c1ccccc1,i
CCc1ccc(CCC(=O)Nc2ccccc2C(=O)O)o1,i
CCN(CC)CC(=O)Nc1nn(-c2ccccc2)nc1C(N)=O,i
COC(=O)C1(Cc2ccccc2)C2c3cc(C(=O)N4CCCC4)n(Cc4ccc(OC(F)(F)F)cc4)c3CC2CN1C(=O)c1ccccc1 (configuration not stated),i
Cn1c(=O)c2c(nc(Br)n2CC(=O)c2cccs2)n(C)c1=O,i
COCCN1Cc2cccc(C(=O)NC(C)c3cccs3)c2C1=O (configuration not stated),i
Cc1ccc(S(=O)(=O)NCCc2ccc(S(N)(=O)=O)cc2)cc1,i
CC1(C)CC(=O)C(C=Nc2cccc(/N=C/C3=C(O)CC(C)(C)CC3=O)n2)=C(O)C1,i
COC(=O)C1=C(C)N(CCCC(=O)O)C(=O)NC1c1ccc(C#N)cc1 (configuration not stated),i
COc1cc(S(=O)(=O)NCc2cccnc2)c(OC)cc1Br,i
CCCN(Cc1ccc(N(C)C)cc1)CC1CC1,i
CCOc1ccc(N=c2scc(-c3ccccc3)n2CCO)cc1,i
Nc1nnc(CCS(=O)(=O)c2ccc(Cl)cc2)s1,i
COc1ccc(-c2cn(-c3ccc(C)cc3)c(=O)n2CC(=O)Nc2cccc(F)c2)cc1,i
COC(=O)c1ccc(C(/C=C/[C@@H](C)C(=O)NCc2cc(C)n(C)n2)NC(=O)OCc2ccccc2)cc1 (some centres not stated),i
CC(C)C[C@H](NS(=O)(=O)c1ccc(Br)cc1)C(=O)O,i
S=c1[nH]c2cc(Cl)ccc2s1,i
CCOC(=O)Cc1c(C)nc2cc(-c3ccc(C(C)(C)C)cc3)[nH]n2c1=O,i
COc1ccc(/C=C/C(=O)NCC(=O)N/N=C/c2cc(Br)ccc2OC)cc1,i
O=C1c2ccccc2C(=O)N1CCc1nc(-c2ccncc2)no1,i
COc1cccc(NS(=O)(=O)Cc2ccccc2)c1,i
CCCCOC(=O)CSc1n[nH]c(=O)[nH]c1=O,i

# Overlap with the part before: four compounds, followed by the next part.
SMILES,MT1-MMP promoter
COc1ccc(/C=C/C(=O)NCC(=O)N/N=C/c2cc(Br)ccc2OC)cc1,i
O=C1c2ccccc2C(=O)N1CCc1nc(-c2ccncc2)no1,i
COc1cccc(NS(=O)(=O)Cc2ccccc2)c1,i
CCCCOC(=O)CSc1n[nH]c(=O)[nH]c1=O,i
CCOc1ccccc1NC(=S)NCc1ccco1,i
CC1=C(C(=O)OCc2ccccc2)C(c2ccccc2OS(=O)(=O)c2ccc([N+](=O)[O-])cc2)NC(=O)N1CCCC(=O)O (configuration not stated),i
CCC(C)NC(=O)c1csc2c1CCCCC2 (configuration not stated),i
COC(=O)[C@@H]1C[C@@H]2CC[C@@H](O)C[C@@H]2N1Cc1ccc(Cl)cc1,i
CC1(C)C(=O)OC(c2cccs2)C2(CCCCC2)C1=O (configuration not stated),i
COc1ccc(CNC(=O)C2CC(C)=C(C)CC2C(=O)O)cc1 (configuration not stated),i
CCCN1C(=O)CN(C2CCCCCC2)C(=O)C1c1ccc(C)cc1 (configuration not stated),i
COc1ccc(CC(=O)NC(C)c2nnc(SCC(=O)c3ccc(Br)cc3)n2C)cc1 (configuration not stated),i
COCCCNC(=O)Nc1ccc2c(c1)N(C)C(=O)CS2,i
CCCNC(=O)c1ccccc1NC(=O)Nc1ccccc1C,i
CCOC(=O)CN1NC2(CCC(C(C)(C)C)CC2)NC1=S (configuration not stated),i
CC(C)CC1(C(=O)NCC2CC2)C=CCN1C(=O)c1ccccc1 (configuration not stated),i
CC(C)(C)SCCNC(=O)CN(c1ccc(F)c(Cl)c1)S(C)(=O)=O,i
Cc1nnc(SCC(=O)NCc2ccccc2)[nH]c1=O,i
COC(=O)[C@@]1(Cc2ccc(F)cc2)[C@@H]2C(=CC(=O)[C@H]2CC(=O)C(=O)N(C)C)CN1C(=O)c1ccccc1,i
Cc1nc(N)sc1-c1nnc(SCC(=O)Nc2ccccc2C(F)(F)F)n1C,i
CCC1(C)Cc2ccccc2-c2c1c(=O)n(-c1ccc(C)cc1)c1nnnn21 (configuration not stated),i
COC(=O)/C(=C(/F)Sc1cc(C)c(O)c(C)c1)C(F)(F)F,i
COCCCNC(=O)c1ccc2c(=O)n(Cc3ccc4c(c3)OCO4)c(=S)[nH]c2c1,i
COC(=O)c1ccc(C(NC(=O)OCc2ccccc2)/C(F)=C/[C@@H](C)C(=O)N(C)Cc2cccnc2)cc1 (some centres not stated),i
COC(=O)[C@@]1(Cc2ccccc2)C=C[C@@H](C)N1C(C)=O,i
O=C(NCCCO)NC12CC3CC(CC(C3)C1)C2,i
CCC1=C(OC(=O)N(CC)CC)N2C(=O)OC(=NCCc3c[nH]c4ccccc34)[C@]2(C)[C@H]2C1=CC[C@H]1C(=O)N(CC(=O)OC)C(=O)[C@H]12,i
CC(=O)c1c(N2CCOCC2)nc(=S)n(-c2ccccc2)c1C,i
CCNS(=O)(=O)c1ccc2c(c1)n(C)c(=O)n2C,i
CCc1c(C)sc(NC(=O)c2cc(-c3ccc(OC)c(OC)c3)on2)c1C#N,i
C[C@@H](C(=O)Nc1ccc2ccccc2c1)[C@H]1C[C@]1(C)[C@H](NC(=O)c1cnccn1)c1ccccc1,i
CCN(CC)CCn1c(=N)n(CCOc2ccccc2)c2ccccc21,i
CC(NC(=O)CCOc1ccccc1)c1ccccc1 (configuration not stated),i
C[C@@H]1C=C[C@](Cc2ccccc2)(C(=O)NCCc2c[nH]c3ccccc23)N1C(=O)c1ccccc1,i
COC(=O)[C@@]1(Cc2ccc(OC)cc2)[C@H]2c3cc(C(=O)N4CCCC4)n(CCc4c[nH]c5ccccc45)c3C[C@H]2CN1C(=O)c1ccccc1,i
CCCN(CCC)C(=O)CSc1nc2ccsc2c(=O)n1NC(=O)c1ccccc1,i
COC(=O)N1[C@H](Cc2ccccc2)C=C[C@]1(C)C(=O)NCc1ccccn1,i
COC(=O)N1C2(C=CC1(C)C(=O)NCc1ccc(N(C)C)cc1)CCCCC2 (configuration not stated),i
CCCCCCN(C(=O)CCCCCN1C(=O)NC(c2ccc(-c3ccccc3)cc2)C(C(=O)OCc2ccccc2)=C1C)C(C(=O)NCCCC)C1CCCCC1 (configuration not stated),i
CCc1ccc(NC(=O)CCn2cccc2)cc1,i
CCOC(=O)C1=C(C)N(CCCCCC(=O)O)C(=O)NC1c1cccc([N+](=O)[O-])c1 (configuration not stated),i
C[C@@]1(C(NS(=O)(=O)c2cccc3cccnc23)c2ccc(-c3ccccc3)cc2)C[C@H]1C1CCCCC1 (some centres not stated),i
CCCCNC(=O)OC(C)CNC(=O)OC (configuration not stated),i
CCCCCCOc1ccc(OC(=O)c2cccnc2)cc1,i
COc1ccc(-c2noc(CSc3ccc(C)cc3)n2)cc1,i
O=C(CSc1nnc(-c2cccs2)n1-c1ccccc1)N1CCCc2ccccc21,i
CCn1c(=O)cc(SCC(=O)Nc2cc(OC)c(OC)c(OC)c2)c2ccccc21,i
O=C(/C=C/c1ccc(Cl)cc1Cl)n1cccn1,i
COC(=O)[C@@H]1C[C@@H]2CC[C@@H](O)C[C@@H]2N1Cc1ccc(N2CCN(C)CC2)cc1,i
O=C1NC(C(=O)O)=CC(c2cccc(Cl)c2Cl)N1 (configuration not stated),i
COC(=O)C1(C)C=CCN1C(=O)c1ccccc1 (configuration not stated),i
COc1cccc(-c2nc3ccccc3s2)c1,i
COC(=O)[C@@H]1C[C@@]2(O)[C@@H](O)[C@@H](O)[C@@H](O)C[C@H]2N1Cc1ccc(N2CCOCC2)cc1,i
Cc1ccc(S(=O)(=O)NC(CC(C)C)C(=O)Nc2nccs2)cc1 (configuration not stated),i
COc1cc(S(=O)(=O)Nc2ccccn2)ccc1F,i
CCOC(=O)c1nnn(-c2nc(OC)nc(N3CCCC3)n2)c1-c1ccccc1,i
COC(=O)C1=C(CCc2ccccc2)NC(=O)NC1c1ccc([N+](=O)[O-])cc1 (configuration not stated),i
COc1ccc(NC(=S)NNC(=O)OC(C)(C)C)cc1OC,i
O=C(Nc1ccncc1)c1ccc2c(c1)C(=O)N(C1CCCCC1)C2=O,i
Cc1ccc(CNC(=O)COc2ccc(S(=O)(=O)NC(C)C)cc2)cc1,i
CCOC(=O)n1cc(-c2cnc(CNC(=O)C(C)(c3ccccc3)c3ccccc3)o2)c2ccccc21,i
CCOC(=O)c1cnc(SC)nc1Sc1ccc(Cl)cc1Cl,i
COc1ccc(C)cc1NC(=O)CSc1nnc(CC(=O)Nc2ccccc2C)n1C,i
COC(=O)C1(Cc2ccccc2)C=C2C(=C(c3ccccc3)C(=O)C2C)CN1 (configuration not stated),i
# The list continues:
SMILES,MT1-MMP promoter
O=C(/C=C/Sc1ccccc1)c1ccc(Cl)cc1,i
Cc1ccc(-n2ncc3c(=O)n(-c4ccc(C)c(C)c4)c(-c4ccco4)nc32)cc1,i
CCC(C)NC(=O)CSC1=Nc2ccccc2C2=NC(c3ccccc3)C(=O)N12 (configuration not stated),i
CCOc1cc2[nH]c(=S)n(CCN3CCC(C)CC3)c(=O)c2cc1OCC,i
O=C1Nc2cc(Cl)c(Cl)cc2N(O)N1c1cc(Cl)cc(Cl)c1,i
CC(=O)Nc1cc(C(C)C)c(O)c(C(C)C)c1,i
CCCn1c(=S)[nH]c2cc(C(=O)N3CCc4ccccc43)ccc2c1=O,i
CNC(=O)[C@@]1(C)C=C[C@@H](Cc2ccccc2)N1C(=O)OC,i
O=C1/C(=C/c2ccccc2)CSc2sccc21,i
CSc1ccccc1C(=O)Nc1ccc(C)c(C)c1,i
Cc1cc(Cl)ccc1OCC(=O)Nc1nc(-c2cccs2)cs1,i
CCOC(=O)C1=C(C)N(CCCCCC(=O)O)C(=O)NC1c1ccccc1OS(=O)(=O)c1ccccc1[N+](=O)[O-] (configuration not stated),i
CCCCCCN(C(=O)CCCCCN1C(=O)NC(c2ccc(Cl)cc2)C(C(=O)OCc2ccccc2)=C1C)C(C(=O)NCCCC)c1ccc(OCC(=O)OC)c(C(=O)OC)c1 (configuration not stated),i
COC(=O)c1c(C(=O)OC)c(-c2ccccc2)n2c1CS(=O)(=O)C2,i
CCOC(=O)C(C)Oc1ccc2c(CC)cc(=O)oc2c1C (configuration not stated),i
COC(=O)[C@@H]1C[C@@]2(O)[C@H](O)[C@H](O)[C@H](O)C[C@H]2N1Cc1ccc(C(C)(C)C)cc1,i
CCCCNC(=O)C(c1ccc(OCC(=O)OC)c(C(=O)OC)c1)N(CCc1ccccn1)C(=O)CCCCCN1C(=O)NC(c2ccc(-c3ccccc3)cc2)C(C(=O)OCc2ccccc2)=C1C (configuration not stated),i
CCC(C)(C)C(=O)Nc1ccc(C(N)=O)cc1,i
CCOC(=O)C1C(=O)NCC1c1ccccc1 (configuration not stated),i
O=C(Cc1cccs1)N(Cc1ccco1)C1(C(=O)NC2CCCCC2)CCCCC1,i
CCCNC(=O)c1oc2ccc3c(c2c1C)C(=O)CC(C)(C)O3,i
CCOc1cc(S(=O)(=O)NC2CCCCC2)ccc1F,i
Cc1nn(-c2nc(-c3ccco3)cc(C(F)(F)F)n2)c(C)c1Br,i
COc1ccc(/C=N/Nc2nc(N3CCCC3)nc(N3CCCC3)n2)cc1O,i

# The closing four compounds of the part before come first, to join the parts:
SMILES,MT1-MMP promoter
CCCNC(=O)c1oc2ccc3c(c2c1C)C(=O)CC(C)(C)O3,i
CCOc1cc(S(=O)(=O)NC2CCCCC2)ccc1F,i
Cc1nn(-c2nc(-c3ccco3)cc(C(F)(F)F)n2)c(C)c1Br,i
COc1ccc(/C=N/Nc2nc(N3CCCC3)nc(N3CCCC3)n2)cc1O,i
O=C(CC1NCCNC1=O)Nc1ccc2c(c1)OCCO2 (configuration not stated),i
CCCCn1c(SCC(=O)NCc2ccco2)nc2c(sc3ccccc32)c1=O,i
Cc1cc(NS(=O)(=O)c2ccc(NC(=O)C(CC(C)C)N3C(=O)c4ccccc4C3=O)cc2)nc(C)n1 (configuration not stated),i
FC(F)(F)c1ccccc1NC(=S)NN1CCOCC1,i
CCOc1ccccc1C(=O)n1nc(C)cc1C,i
C/C(=C\c1ccccc1)CN1CCN(c2cccc(Cl)c2)CC1,i
COC(=O)c1ccc(C#CC(NP(=O)(c2ccccc2)c2ccccc2)c2ccccc2)cc1 (configuration not stated),i
CC(C)C(=O)NS(=O)(=O)c1ccc(N)cc1,i
CCCN(C(=O)Cn1ncc2c(=O)oc3ccccc3c21)c1cccc(C)c1,i
CCN(CC)S(=O)(=O)c1ccc(C(=O)N2CCCCC2)cc1,i
OC1CCN(C(=S)NCCc2ccccc2)CC1,i
Cc1ccc(S(=O)(=O)/N=S(\C)CC2CC2(Cl)Cl)cc1 (configuration not stated),i
CC(=O)N1[C@H](C)C=C[C@]1(Cc1ccccc1)C(=O)NCc1ccccn1,i
CCC(C)NC(=O)CSC1=Nc2ccccc2C2=NC(CCC(=O)NCc3ccco3)C(=O)N12 (configuration not stated),i
CCc1ccc(OCC(O)CNC(C)(C)C)cc1 (configuration not stated),i
O=C(c1ccc([N+](=O)[O-])cc1)N(Cc1ccc(Br)cc1)N1C(=O)CCCC1=O,i

# No new results follow: entries from further up.
SMILES,MT1-MMP promoter
Cc1ccc(S(=O)(=O)/N=S(\C)CC2CC2(Cl)Cl)cc1 (configuration not stated),i
CC(=O)N1[C@H](C)C=C[C@]1(Cc1ccccc1)C(=O)NCc1ccccn1,i
